# Source: PubChem
# StopGo reporter: lowers the luciferase signal of an FMDV 2A StopGo reporter; human cells with a luciferase reporter of 2A StopGo recoding; control for the full effect not named in the record; actives 1.2% (n = 410,000); Potency, µM (series often up to 57.9 µM), for the others: at the highest dose signal change, negative = less light; active = well fitted falling curve with a large enough effect; inconclusive = small, poorly fitted or top-dose-only effect; inactive = no such curve, though single readings can be large or run the other way; tested in HEK293T cells; also: % is scaled to controls: 0 for no effect and ±100 for the full control effect; nearly all actives have a fitted effect of over 45% in size; luciferase light after 4 h
# Cruzain inh noDet: blocks cruzain activity in detergent-free assay; purified cruzain, Z-FR-AMC fluorescence, no detergent; P25779; actives 2.3% (n = 200,000); AID 1476; Potency, µM, inactives show max response, negative = inhibition, hits mostly inhibitors; active = well fitted curve in the direction sought with a large enough effect; inconclusive = small, poorly fitted or top-dose-only effect, or another doubt; inactive = no such curve, though single readings can be large; an effect the other way counts as inactive or inconclusive;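 also: plate controls were enzyme without inhibitor for no effect and buffer without enzyme for full effect; nearly all actives have a fitted effect of over 40% in size; top concentration of the series not given in the record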
# Target sequence (P25779 123-467 limits assumed): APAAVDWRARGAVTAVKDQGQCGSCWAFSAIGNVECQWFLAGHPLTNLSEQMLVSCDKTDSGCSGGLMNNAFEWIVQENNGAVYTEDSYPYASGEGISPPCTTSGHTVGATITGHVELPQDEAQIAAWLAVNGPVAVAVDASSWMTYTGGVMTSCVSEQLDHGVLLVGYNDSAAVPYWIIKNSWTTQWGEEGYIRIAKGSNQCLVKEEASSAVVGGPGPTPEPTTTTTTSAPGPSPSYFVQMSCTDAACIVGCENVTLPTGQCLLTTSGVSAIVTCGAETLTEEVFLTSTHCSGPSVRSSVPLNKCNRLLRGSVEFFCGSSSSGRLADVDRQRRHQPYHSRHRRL
#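 Purified cruzain at 1.5 nM, pre-incubated 15 min with compound at room temperature in 100 mM sodium acetate pH 5.5, 5 mM DTT, 0.00005% Triton X-100. Reaction started with 2 uM Z-FR-AMC; AMC fluorescence increase over 60 s gives rate.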
# NS1 inh: blocks influenza NS1 protein function; S. cerevisiae slowed by influenza A NS1, growth recovery by OD600; Potency, µM (highest dose often 46.1 µM), for the others: at the top dose activity, positive = more growth; actives 0.4% (n = 270,000); also: actives are rising curves; nearly all actives have a fitted effect of over 50% in size
#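 Growth recovery, yeast-based: influenza A NS1 expressed in S. cerevisiae causes slow growth, and suppressors are detected by OD600. The parent strain without NS1 is used as positive control.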
# RE007 growth inh: less growth of the S. pombe RE007 Vpr strain. S. pombe RE007 Vpr strain, BacTiter-Glo ATP luminescence, 24 h; control for the full effect not named in the record. Potency, µM (highest dose often 92.2 µM), inactives show top-dose activity change, negative = less growth. actives 0.21% (n = 360,000). AID 651644; active = well fitted falling curve with a large enough effect; inconclusive = small, poorly fitted or top-dose-only effect; inactive = no such curve, though single readings can be large or run the other way;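 also: % is scaled to controls: 0 for no effect and ±100 for the full control effect; nearly all actives have a fitted effect of over 50% in size; the assay follows cell death caused by Vpr and the record does not say whether a fall means rescue or toxicity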
#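 Fission yeast strain RE007, carrying one chromosomally integrated HIV-1 vpr copy, was seeded at OD 0.01 in PMG+AL medium with 23 nL pinned compound. After 24 h at 30 °C and 99% humidity, viability was read by BacTiter-Glo luminescence.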
# MARV entry inh: inhibitors of Marburg virus binding or cell entry | Marburg virus pseudotyped entry inhibition, cell reporter; control for the full effect not named in the record; about a third of the inactives were read at about 46 µM | Potency, µM (titrated, usually from 37.8 µM), without a hit: at the highest dose activity change, negative = inhibition, most hits filed as inhibitors | actives 1.8% (n = 300,000); active = well fitted inhibition curve with a large enough effect; inconclusive = small, poorly fitted or top-dose-only effect, or effect the other way; inactive = flat fitted curve, though single readings scatter; tested in HEK293 cells; about a fifth of its hits are not listed in these tables; also: % is scaled to controls: 0 for no effect and ±100 for the full control effect; luciferase read-out
# LASV entry inh: blocks Lassa virus binding to or entry into cells; Lassa virus pseudotype entry inhibition, cell reporter; control for the full effect not named in the record; AID 540256; actives 1.2% (n = 300,000); Potency, µM (titrated, usually from 37.9 µM), for the others: at the top dose activity change, negative = inhibition, actives largely listed as inhibitors; active means well fitted inhibition curve with a large enough effect; inconclusive means small, poorly fitted or top-dose-only effect, or effect the other way; inactive means flat fitted curve, though single readings scatter; tested in HEK293 cells; also: % is scaled to controls: 0 for no effect and ±100 for the full control effect; nearly all actives have a fitted effect of over 50% in size; luciferase read-out
# SARS PLpro yeast: blocks SARS-CoV papain-like protease in a yeast assay. AID 485353. Potency, µM (highest dose often 32.9 µM), for the others: top-dose activity, positive = growth rescue. S. cerevisiae expressing SARS-CoV PLpro, growth rescue; control for the full effect not named in the record. actives 0.19% (n = 330,000); also: 0% is about no effect; nearly all actives have a fitted effect of over 55% in size; growth read by luminescence after 48 h
# Cruzain inh Det: cruzain (T. cruzi) inhibition with detergent | P25779 | purified cruzain, Z-FR-AMC fluorescence, 0.01% Triton | Potency, µM, for inactives: max response, negative = inhibition, usual class: inhibitors | actives 0.43% (n = 200,000) | AID 1478; active = well fitted curve in the direction sought with a large enough effect; inconclusive = small, poorly fitted or top-dose-only effect, or another doubt; inactive = no such curve, though single readings can be large; an effect the other way counts as inactive or inconclusive;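 also: plate controls were neutral wells for no effect and buffer without enzyme for full effect; nearly all actives have a fitted effect of over 40% in size; top concentration of the series not given in the record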
#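 In this qHTS format, compounds are incubated with 1.5 nM cruzain for 15 min at room temperature before 2 uM Z-FR-AMC is added. Release of AMC is followed at 360/450 nm, and progress is taken as the 60 s fluorescence difference.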
# Active calls of the source: *; ? = inconclusive; . = no result given; [ ] = dose if it differs, or a comment. Unless noted, calls follow the shape of the dose curve; as a rule, active means well fitted rising curve with a large enough effect; inconclusive means small, poorly fitted or top-dose-only effect; inactive means no such curve, though single readings can be large or run the other way. Potency is read from the fitted curve at half-maximal effect.
# The first 10 records, ahead of the listing:
No.	structure	StopGo reporter	Cruzain inh noDet	NS1 inh	RE007 growth inh
1	O=C(Cn1nc(-c2nn(CC(=O)c3ccccc3)c3[n+]2CCCCC3)[n+]2c1CCCCC2)c1ccccc1	0%	.	-3%	12%
2	Cc1ccc(NC(=O)c2sc(=S)n(-c3cc(C)ccc3F)c2N)cc1	10%	.	.	-15%
3	CCC1CN(C(=O)N2CCC(C(=O)NCCc3ccccc3C)CC2)c2ccccc2O1 (stereo not given)	?	4%	.	.
4	COc1ccccc1NC(=O)CN1C(=O)C2(OCCCO2)c2ccccc21	6%	-10%	-3%	8%
5	O=C(NCCCN1CCOCC1)C(=O)NCc1ccco1	-11%	.	5%	-4%
6	CC1Cc2ccccc2N1C(=O)CCNS(=O)(=O)c1cccc2nsnc12 (stereo not given)	30%[activator]	-1%	5%	7%
7	Cc1cc([N+](=O)[O-])nn1CC(=O)NCc1nc2ccccc2[nH]1	-3%	.	.	2%
8	Cc1cccc(-c2cnn(-c3ccccc3)c2N)c1	45%[activator]	.	-34%	-25%
9	COc1cc(NC(=O)CSc2nc(C)c(C)c(C)n2)c(C)cc1[N+](=O)[O-]	0%	5%	7%	-4%
10	O=C(CCl)N(CCCNC(=O)C(F)(F)F)c1ccc([N+](=O)[O-])cc1	20µM*	.	1%	-2%

No.	MARV entry inh	LASV entry inh	SARS PLpro yeast	Cruzain inh Det
1	0%[46.1 µM]	6%	0%	.
2	31%[46.1 µM]	-35%[46.1 µM]	-6%	.
3	.	?	.	-5.6%
4	-21%	-13%	-3%	-3.1%
5	.	.	0%	.
6	24%[46.1 µM]	-4%	2%	-0.9%
7	-13%[46.1 µM]	-4%	6%	.
8	.	.	-5%	.
9	24%	-4%	2%	-2.5%
10	-17%[46.1 µM]	3%	0%	.

# Main list, repeating the preview:
No.	structure	StopGo reporter	Cruzain inh noDet	NS1 inh	RE007 growth inh
1	O=C(Cn1nc(-c2nn(CC(=O)c3ccccc3)c3[n+]2CCCCC3)[n+]2c1CCCCC2)c1ccccc1	0%	.	-3%	12%
2	Cc1ccc(NC(=O)c2sc(=S)n(-c3cc(C)ccc3F)c2N)cc1	10%	.	.	-15%
3	CCC1CN(C(=O)N2CCC(C(=O)NCCc3ccccc3C)CC2)c2ccccc2O1 (stereo not given)	?	4%	.	.
4	COc1ccccc1NC(=O)CN1C(=O)C2(OCCCO2)c2ccccc21	6%	-10%	-3%	8%
5	O=C(NCCCN1CCOCC1)C(=O)NCc1ccco1	-11%	.	5%	-4%
6	CC1Cc2ccccc2N1C(=O)CCNS(=O)(=O)c1cccc2nsnc12 (stereo not given)	30%[activator]	-1%	5%	7%
7	Cc1cc([N+](=O)[O-])nn1CC(=O)NCc1nc2ccccc2[nH]1	-3%	.	.	2%
8	Cc1cccc(-c2cnn(-c3ccccc3)c2N)c1	45%[activator]	.	-34%	-25%

No.	MARV entry inh	LASV entry inh	SARS PLpro yeast	Cruzain inh Det
1	0%[46.1 µM]	6%	0%	.
2	31%[46.1 µM]	-35%[46.1 µM]	-6%	.
3	.	?	.	-5.6%
4	-21%	-13%	-3%	-3.1%
5	.	.	0%	.
6	24%[46.1 µM]	-4%	2%	-0.9%
7	-13%[46.1 µM]	-4%	6%	.
8	.	.	-5%	.

# The list continues.
No.	structure	StopGo reporter	Cruzain inh noDet	NS1 inh	RE007 growth inh
9	COc1cc(NC(=O)CSc2nc(C)c(C)c(C)n2)c(C)cc1[N+](=O)[O-]	0%	5%	7%	-4%
10	O=C(CCl)N(CCCNC(=O)C(F)(F)F)c1ccc([N+](=O)[O-])cc1	20µM*	.	1%	-2%
11	C/C(=N/NS(=O)(=O)c1ccc(Cl)cc1)c1cccc(NC(=O)c2ccc(Cl)cc2Cl)c1	15%	25µM*	28%	-1%
12	O=C(NNC(=S)Nc1cccc(C(F)(F)F)c1)c1ccccc1Cl	-7%	14%	-42%	25%
13	CSc1nn2cc(CCN3CCOCC3)c(-c3ccc(F)cc3)nc2c1C#N	14%	.	.	-2%
14	CN(C)CCn1cnc2c1c(=O)[nH]c(=O)n2Cc1ccccc1	8%	.	9%	-21%
15	CC(C)C[C@H](NC(=O)N1c2ccccc2NC(=O)[C@@H]1C(C)C)C(=O)N1CCC[C@@H]1C(=O)O	-24%	.	-8%	3%
16	COC(=O)c1cc(NC(=O)c2ccccc2)c(=O)oc1C/C=N\OCc1ccc(Cl)cc1Cl	-23%	?	14%	0%

No.	MARV entry inh	LASV entry inh	SARS PLpro yeast	Cruzain inh Det
9	24%	-4%	2%	-2.5%
10	-17%[46.1 µM]	3%	0%	.
11	?	24%	-3%	1.2%
12	?	?	?	0.4%
13	-12%[46.1 µM]	?	0%	.
14	?	22%	0%	.
15	.	.	-3%	.
16	?	0%	25%	-24%

# (list continues)
No.	structure	StopGo reporter	Cruzain inh noDet	NS1 inh	RE007 growth inh
17	CC1CCCCN1C(=O)CSc1nc2ccccc2n1CC(=O)N1CCc2ccccc21 (stereo not given)	0%	26%	?	-6%
18	Cc1ccc(CN2CCN(/N=C/c3ccc(C(F)(F)F)cc3)CC2)c(C)c1	-22%	11%	12%	-27%
19	Cc1ccc(C)c(Cn2cc(CCC(=O)NC3CCCCC3)c3ccccc32)c1	-10%	1%	.	.
20	COc1ccc(C(=O)C2CCCN(C(=O)c3csc(C(C)=O)c3)C2)c(C)c1 (stereo not given)	?	.	0%	5%
21	CCOc1cc2[nH]c(=O)n(CCCCC(=O)NCc3ccco3)c(=O)c2cc1OCC	23%	?	0%	5%
22	Cc1nc(NC(=O)C(Cl)Cl)sc1C(=O)N(C)C	-16%	7%	-10%	24%
23	Cc1cc2ncn(CS(C)(=O)=O)c2cc1C	-6%	.	1%	38%
24	Cc1ccc(-c2noc(CCC(=O)NCCc3ccccc3Cl)n2)cc1	-15%	-4%	0%	-18%

No.	MARV entry inh	LASV entry inh	SARS PLpro yeast	Cruzain inh Det
17	?	-22%	-1%	-4.5%
18	-23%	3%	?	-3.5%
19	.	0%[46.1 µM]	.	-0.1%
20	.	.	-5%	.
21	1%	-5%	9%	-1.2%
22	?	3%	3%	-4.4%
23	12%[46.1 µM]	2%	0%	.
24	-9%	-7%	3%	-1.3%

# Following part.
No.	structure	StopGo reporter	Cruzain inh noDet	NS1 inh	RE007 growth inh
25	COc1ccc(-c2noc(CCC(=O)Nc3cccc(C)c3)n2)cc1	-28%	-6%	-69%	-4%
26	OC(CNCC1CCCO1)Cn1c2ccccc2c2ccccc21 (stereo not given)	-25%	-3%	-7%	-2%
27	Cc1cc(O)c(C(C)C)cc1NC(=O)Nc1ccc([N+](=O)[O-])cc1	-13%	.	.	-7%
28	CCCn1c(SCc2ccc(Cl)cc2)nc2c1c(=O)[nH]c(=O)n2C	?	-5%	-16%	6%
29	O=C(Nc1ccc2ccccc2c1)NC1CCS(=O)(=O)C1 (stereo not given)	23%	.	2%	-11%
30	COc1ccc(OC)c(C(O)c2nc3ccccc3n2C(C)C)c1 (stereo not given)	-1%	-1%	-7%	-9%
31	COc1cc(C)nc(N(Cc2ccccc2)S(=O)(=O)c2ccccc2)n1	?	-3%	-2%	2%
32	CCOC(=O)CCNC(=O)N1CCCC(CCC(=O)N(C)CCc2ccccn2)C1 (stereo not given)	-6%	.	-1%	-7%

No.	MARV entry inh	LASV entry inh	SARS PLpro yeast	Cruzain inh Det
25	16%	-29%	1%	-5.8%
26	?	-10%	1%	-3.2%
27	?	?	.	.
28	-16%[46.1 µM]	16µM*	-3%	-2.8%
29	12%	14%	0%	.
30	18%	6%	6%	2.1%
31	?	-5%	-2%	-5.3%
32	.	.	0%	.

# Next part:
No.	structure	StopGo reporter	Cruzain inh noDet	NS1 inh	RE007 growth inh
33	COc1ccc(NC(=O)CSc2nncn2N)c(OC)c1	-4%	.	8%	-4%
34	O=C(O)CCn1[nH]c(=O)c2ccccc2c1=O	7%	-10%	3%	14%
35	Cc1cc(NC(=O)C(C)SCC(=O)OCC(=O)N(Cc2ccccc2)C(C)(C)C)no1 (stereo not given)	-7%	.	-2%	4%
36	CS(=O)(=O)C1=NN2C(=N)/C(=C\c3ccc(OC(=O)c4ccco4)cc3)C(=O)N=C2S1	-7%	.	-26%	18%
37	CC(=O)Nc1cccc(Cn2cccn2)c1	.	3%	5%	.
38	Cc1ccc(S(=O)(=O)NCC(c2ccc(N(C)C)cc2)N2CCc3ccccc32)cc1 (stereo not given)	-1%	-4%	.	.
39	O=C1CC(N(O)c2ccccc2)C(=O)N1Cc1ccccc1 (stereo not given)	-9%	0%	7%	0%
40	CCOc1ccc(S(=O)(=O)NCC(c2ccc3c(c2)OCO3)N2CCN(C)CC2)cc1 (stereo not given)	-2%	.	.	14%

No.	MARV entry inh	LASV entry inh	SARS PLpro yeast	Cruzain inh Det
33	-15%[46.1 µM]	20%[46.1 µM]	2%	.
34	6%	4%	-4%	4.4%
35	4%	4%	7%	.
36	.	.	-6%	.
37	-5%	.	1%	-2.0%
38	.	-3%[46.1 µM]	.	-3.6%
39	-19%	-15%	2%	-2.2%
40	7.9µM*	?	13%	.

# (more compounds)
No.	structure	StopGo reporter	Cruzain inh noDet	NS1 inh	RE007 growth inh
41	O=C(c1ccc(-c2ccccc2)cc1)C1CCCN(Cc2ccn[nH]2)C1 (stereo not given)	11%	.	9%	-10%
42	CC(C)c1ccc(S(=O)(=O)N2CCN(Cc3cccc(F)c3)CC2)cc1	-12%	6%	.	.
43	O=C1CCCN1c1ccc(S(=O)(=O)NCc2ccco2)cc1	6%	8%	8%	8%
44	O=C(Cn1c(C(F)(F)F)nc2ccccc21)N/N=C/c1ccco1	3%	.	.	17%
45	CC1CN(C(=O)/C=C/c2ccc([N+](=O)[O-])s2)CC(C)O1 (stereo not given)	13%	.	.	-28%

No.	MARV entry inh	LASV entry inh	SARS PLpro yeast	Cruzain inh Det
41	.	.	-1%	.
42	.	5%[46.1 µM]	.	-2.3%
43	4%	?	1%	-3.1%
44	?	13%[46.1 µM]	-1%	.
45	11µM*	?	3%	.
